Bioassay records as filed in PubChem BioAssay.
UUG fidelity: modulators of start codon recognition fidelity in yeast; AID 602363; actives 0.13% (n = 350,000); activity score, % at 18.7 µM; S. cerevisiae UUG-firefly luciferase reporter, luminescence/redox ratio;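 active = replicate mean at a twofold rise or more, about +100% in these data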;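 note: firefly luciferase made from a UUG start codon reports start codon fidelity; reporter light over untreated wells divided by growth signal over untreated wells; some hits fall short of that in this replicate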
CSC inhib: cancer stem cell inhibition | cancer stem cell-like cells viability, luminescence | inhibition, % at 7.5 µM | actives 1.1% (n = 300,000);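 active = mean at 75% or more and at least half the replicates too; inconclusive = mean and replicates disagree; tested in HMLE shEcad cells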;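 note: 0% = median of negative and 100% = median of positive control wells; the first replicate is given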
eIF4H inh: inhibitors of RNA binding by human eIF4H; Q15056; eIF4H fluorescence polarization binding assay; inhibition, % at 35 µM; actives 0.94% (n = 290,000); AID 2012;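 active = 50% or more with normal probe brightness, or confirmed in later tests; inconclusive = above 50% with abnormal brightness, or retests that disagree; inactive = below 50% or failed in later tests; about a fifth of its hits are not listed in these tables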;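 note: calls also rest on retests at 20 µM and on dose response follow-up; 0% = protein and probe with vehicle and 100% = probe without protein; strong numbers were not always called active; many hits fall short of the cut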
Env fusion inh: HIV envelope-mediated fusion inhibition. HeLa-JRFL Env/CEM21 cell fusion, luciferase. inhibition, % at 12.3 µM. actives 1.1% (n = 360,000). AID 651610;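 active = mean replicate inhibition score of at least 50 and every replicate individually at or above 50; inconclusive = only one of the two criteria met; inactive = mean below 50 and not all replicates reaching 50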;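 note: 0% = plate neutral controls and 100% = maraviroc near 300 nM; one replicate is shown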
MT1-MMP act inh: MT1-MMP (human) activation inhibition; GFP/RFP ratio change, % at 20 µM; actives 0.061% (n = 360,000); P50281; HT1080 RFP-PRO-GFP cells, GFP/RFP ratio fluorescence, overnight; percent of plate control window, DMSO zero; AID 651647;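 active = GFP/RFP ratio change of at least 30% with cell ATP level not reduced by more than half and red fluorescence within 50% of control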; note: strong numbers were not always called active
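Assay system: HT1080 RFP-PRO-GFP cells. Benchmarks: DMSO vehicle wells and RFP-L50D-GFP reporter cell wells. Times: overnight cell settling, then overnight compound exposure, 37 °C, 5% CO2. Compound: 20 µM single dose, 1% DMSO. Read-out basis: GFP/RFP fluorescence ratio.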
PABP polyA inh: blocks human PABP binding to poly(A) RNA; P11940; fluorescence polarization; inhibition, % at 35 µM; actives 1% (n = 290,000); AID 2014;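 active = 50% or more with normal probe brightness, or confirmed in later tests; inconclusive = above 50% with abnormal brightness, or retests that disagree; inactive = below 50% or failed in later tests; about a fifth of its hits are not listed in these tables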;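 note: calls also rest on retests at 20 µM and on dose response follow-up; controls were probe without protein and protein plus probe with vehicle; some compounds called inactive have numbers as strong as hits; many hits fall short of the cut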
Target sequence (P11940 whole entry, looked up): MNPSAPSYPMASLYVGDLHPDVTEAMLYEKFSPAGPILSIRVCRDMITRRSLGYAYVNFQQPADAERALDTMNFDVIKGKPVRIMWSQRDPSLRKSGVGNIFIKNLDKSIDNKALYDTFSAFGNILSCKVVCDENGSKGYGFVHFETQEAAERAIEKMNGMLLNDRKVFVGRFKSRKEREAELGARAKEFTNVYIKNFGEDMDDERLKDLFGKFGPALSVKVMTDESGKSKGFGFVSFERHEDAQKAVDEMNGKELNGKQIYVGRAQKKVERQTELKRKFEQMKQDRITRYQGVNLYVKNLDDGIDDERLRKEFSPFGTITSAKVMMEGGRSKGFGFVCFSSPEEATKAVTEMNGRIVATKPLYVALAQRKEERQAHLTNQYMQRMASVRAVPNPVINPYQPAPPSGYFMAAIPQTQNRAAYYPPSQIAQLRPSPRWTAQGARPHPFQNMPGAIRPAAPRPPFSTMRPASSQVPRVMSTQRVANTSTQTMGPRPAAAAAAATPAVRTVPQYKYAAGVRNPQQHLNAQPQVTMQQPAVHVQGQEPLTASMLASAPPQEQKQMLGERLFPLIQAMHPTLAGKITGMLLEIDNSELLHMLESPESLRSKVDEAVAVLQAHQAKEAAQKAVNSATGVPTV
Rce1 inhib: yeast Ras-converting enzyme inhibition | Q03530 | yeast membranes, quenched prenylated peptide cleavage fluorescence | calls only | actives 0.27% (n = 290,000) | AID 2563;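 active = fall in fluorescence gain of 50% or more versus controls, with final raw signal at or below 3038400; inconclusive = same 50% fall but final raw signal above 3038400; inactive = fall in fluorescence gain under 50%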;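 note: plate controls were neutral control wells for no effect and wells lacking membranes for full effect; tested at 10 µM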
MT1-MMP act inh RFP: also measured in MT1-MMP act inh; calls as there; RFP signal change, %; measured here: RFP expression control read;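 0 = vehicle wells; hits needed this value within 50% of zero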
* = called active by the depositor; i = inactive; ? = inconclusive; · = not tested or not shown.

Preview (3 entries):
SMILES	UUG fidelity	CSC inhib	eIF4H inh	Env fusion inh	MT1-MMP act inh	MT1-MMP act inh RFP	PABP polyA inh	Rce1 inhib
Cc1ccccc1/C(N)=N/OC(=O)N1c2ccccc2Sc2ccccc21	-9.7	-2.4	-4.9	27.9	2.8	0.0	0.7	i
CCOC(=O)C1=C(C)N(c2ccc(C)cc2)C(=O)/C1=C\c1cccs1	-19.6	1.8	0.0	4.2	0.4	-0.3	3.8	i
CCOc1c(Cl)cc(C(=O)NCCN2CCCCC2)cc1Cl	·	-13.4	-1.5	8.8	2.4	1.9	0.5	i

Main list, from the first entry:
SMILES	UUG fidelity	CSC inhib	eIF4H inh	Env fusion inh	MT1-MMP act inh	MT1-MMP act inh RFP	PABP polyA inh	Rce1 inhib
Cc1ccccc1/C(N)=N/OC(=O)N1c2ccccc2Sc2ccccc21	-9.7	-2.4	-4.9	27.9	2.8	0.0	0.7	i
CCOC(=O)C1=C(C)N(c2ccc(C)cc2)C(=O)/C1=C\c1cccs1	-19.6	1.8	0.0	4.2	0.4	-0.3	3.8	i
CCOc1c(Cl)cc(C(=O)NCCN2CCCCC2)cc1Cl	·	-13.4	-1.5	8.8	2.4	1.9	0.5	i
O=C(CCCSc1nc2ccccc2[nH]1)NCc1ccccc1F	-20.7	-4.6	11.7	1.3	-3.1	-2.1	-5.2	·
COc1ccc2c(C)cc(=O)oc2c1C	-17.5	14.7	-4.5	-158.0	0.5	2.8	-2.8	i
O=C(Cc1ccccc1)Nc1cccc(C(=O)O)c1O	·	-9.2	-7.4	-5.6	0.8	-4.3	-2.3	i
CCc1c(C)nn(C(=O)/C(C#N)=C\N(C)C)c1C	·	12.0	-5.8	-2.4	1.3	3.1	2.4	i
O=C(C1CCN(c2ncnc3c2nc2n3CCCCC2)CC1)N1CCCCC1	-17.5	1.8	1.6	-7.0	5.6	4.7	-4.9	i
Cc1nc(C)c(C(=O)N2CCCC(C(=O)c3ccc4ccccc4c3)C2)s1 (configuration not stated)	-7.6	-7.2	0.1	3.7	3.4	-3.9	2.0	i
CC(=O)NCC(=O)N(C)C(C(=O)Nc1ccc2c(c1)OCCO2)c1ccccc1 (configuration not stated)	-8.2	-12.0	-3.2	·	-2.2	7.0	-1.9	i
CN1C2=C(C(=O)CC(C)(C)C2)C(c2cccs2)C2=C1CC(C)(C)CC2=O	-6.2	-2.6	·	5.3	-3.8	-3.7	·	i
CN1CCCN(C(=O)/C=C/c2ccc(F)cc2)CC1	·	3.8	-4.1	-18.5	-1.6	5.8	11.5	i
O=C(CNS(=O)(=O)c1ccc([N+](=O)[O-])cc1)N/N=C\c1ccc(O)cc1	-5.1	2.8	-8.3	-13.2	-1.0	-0.6	-7.0	i
O=C(c1ccc([N+](=O)[O-])cc1)N1CCN(c2ncc(Br)cn2)CC1	0.9	17.1	13.1	5.2	1.2	-1.8	11.4	i
COc1cc(C2Nc3cc(Cl)c(S(N)(=O)=O)cc3S(=O)(=O)N2)cc(OC)c1OC (configuration not stated)	·	-6.9	6.5	·	5.8	7.0	-0.7	i
O=C(Cn1cccc1C(=O)c1ccccc1)NCc1cccnc1	·	-0.3	3.9	·	2.2	2.9	-2.5	i
Cc1c(NC(=O)Cc2ccccc2)cccc1C(=O)NN1C(=O)c2ccccc2C1=O	-0.4	5.2	-0.6	4.6	0.3	3.5	7.7	i
Cc1cc(NS(=O)(=O)c2ccc(Cl)cc2)nn1CC(=O)NCc1ccco1	-12.8	-6.8	-9.4	·	5.0	-1.7	11.9	i
CN(CC(=O)OCC(=O)NCc1ccccc1)S(=O)(=O)c1ccc(F)cc1	-5.2	-5.0	·	16.4	0.4	5.6	·	·
CN(C)C1(CNC(=O)Nc2ccccc2)CCCCC1	-12.3	-16.9	-15.9	3.3	-0.9	6.3	-1.9	i
CCOCCc1nnc(NC(=O)c2cc(OC)c(OC)c(OC)c2)s1	1.7	·	-1.8	·	20.3	2.5	-1.8	i
CN(Cc1ccccc1)C(=O)c1ccc(Nc2nc(C(N)Cc3ccccc3)cs2)nc1 (configuration not stated)	-34.4	·	·	-39.7	-7.1	-8.4	·	·
CSCCC(NC(=O)c1cccc([N+](=O)[O-])c1)C(=O)O (configuration not stated)	·	-7.6	-3.9	·	3.2	4.4	-9.7	i
NC(=O)CSc1nnc(COc2ccccc2)n1Cc1ccco1	-2.6	-7.2	-1.0	1.0	1.8	4.1	0.7	i
Cc1cccc(-n2ncc3c(N4CCC5(CC4)OCCO5)ncnc32)c1	-26.9	14.0	-2.9	-109.6	2.7	-0.8	-2.4	i
Clc1ccc(C2CSc3c4ncnc-4ncn32)cc1 (configuration not stated)	-16.2	-8.0	7.3	4.5	0.2	-2.0	-0.6	i
COc1ccc2nc(NC(=O)CS(=O)(=O)Cc3ccccc3)sc2c1	-14.2	6.1	33.9	-8.7	1.5	1.5	-3.2	i
COC(=O)c1ccc(-c2ccc(C(=O)N3CCCN(C)CC3)cc2)cc1	·	·	-2.5	·	·	·	6.6	i
CC(=O)Nc1ccc(SCC(=O)N(C)C2CCS(=O)(=O)C2)cc1 (configuration not stated)	-12.7	-8.2	-15.4	1.6	2.8	5.6	-9.9	i
O=C(Nc1ccc(N2CCOCC2)c(S(=O)(=O)Nc2ccccc2Cl)c1)c1ccc(F)cc1	-33.8	32.0	·	0.1	5.7	-5.3	·	·
Cc1ccc(S(=O)(=O)NC(=O)C2(C)CCN2C(=O)CC2CCCC2)cc1 (configuration not stated)	-11.1	·	·	14.8	2.4	7.6	·	·
CCc1nc2c(OCc3ccc(OC)cc3)cccn2c1N(C)C(=O)C(C)C	-16.5	·	·	-3.2	-5.0	-1.9	·	·
CC1(C)NC(=O)N(CCCCOc2ccc(Cl)cc2)C1=O	4.4	21.0	-5.8	10.5	6.0	1.3	-0.8	i
O=C(NCCNS(=O)(=O)c1ccccc1Cl)c1cc(OCC(F)(F)F)ccc1OCC(F)(F)F	8.2	7.7	-7.4	-106.3	-2.6	-0.8	-5.3	·
N#Cc1ccc(-c2csc(NNC(=O)c3ccccc3)n2)cc1	-18.4	-0.8	-1.0	·	7.0	0.4	8.6	i
Cc1ccc(S(=O)(=O)n2ccc3c(OCCOCCNCc4ccc(F)cc4)cccc32)cc1	-7.9	59.5	-6.1	13.1	-1.4	-13.8	-9.1	i
CCN1CCN(c2cc(SC(C)C)nc(-c3ccc(OC)cc3)n2)CC1	-2.4	·	-1.1	·	-4.5	-5.0	-3.0	i
O=Cc1ccc2c(c1)CCN2Cc1ccccc1	-15.3	-5.1	-7.4	-30.3	3.9	2.4	-10.0	i
CC(=O)c1ccc(OCC(O)CN2CCN(CCN3C(=O)c4cccc5cccc(c45)C3=O)CC2)cc1 (configuration not stated)	·	11.1	-0.6	-92.3	-10.3	-7.4	-7.4	i
CCCCSc1nc(NCc2ccco2)c2c3c(sc2n1)COC(C)(C)C3	-22.0	26.5	-4.6	12.1	-1.0	-6.3	2.7	i
O=C(O)CCC(CNS(=O)(=O)c1ccccc1)C(F)(F)F (configuration not stated)	·	6.0	2.2	-14.3	1.5	7.1	-11.1	i
O=C(N/N=C/c1ccoc1)c1ccccc1	-16.0	-4.3	24.8	-19.3	0.2	1.7	23.2	i
O=C(CSc1nnc(-c2cccnc2)n1Cc1ccccc1)NCc1ccco1	-11.4	-2.0	-4.8	·	-5.3	-1.2	7.4	i
CC(=O)Nc1ccc(S(=O)(=O)N(C)CC(=O)OCC(=O)N2CCCCC2)cc1	·	-15.1	·	7.8	2.5	5.7	·	i
COC(=O)c1cccc(S(=O)(=O)N(Cc2ccco2)Cc2cc3cc(OC)c(OC)cc3[nH]c2=O)c1	13.6	·	0.0	-4.3	0.6	-4.4	4.9	i
CCCCC1(C)OC(=O)C(=Cc2c[nH]c3ccccc23)C(=O)O1 (configuration not stated)	·	5.5	?	12.9	-0.3	3.1	27.3	i
O=C(c1ccccc1)c1cc2ccc(O)cc2oc1=O	-34.9	6.6	2.1	-47.4	-5.7	1.3	23.7	i
O=Cc1cn(-c2ccccc2)nc1-c1cccc([N+](=O)[O-])c1	-12.8	·	·	-12.4	-3.6	-5.7	·	·
C[N+]12CCC(CC1)C(OC(=O)C(O)(c1ccccc1)c1ccccc1)C2 (configuration not stated)	0.2	-12.1	-14.3	11.8	2.4	4.2	-9.4	i
O=C(CSc1nc2ccc([N+](=O)[O-])cc2s1)c1ccc2ccccc2c1	-10.7	·	-5.0	-0.8	-5.8	0.3	0.8	·
(listing goes on)
SMILES	UUG fidelity	CSC inhib	eIF4H inh	Env fusion inh	MT1-MMP act inh	MT1-MMP act inh RFP	PABP polyA inh	Rce1 inhib
CC(C)(C)NC(=O)C(c1ccc(-c2ccccc2)cc1)N(C[C@H]1CC[C@@H]([C@@H]2CC[C@H](CO)O2)O1)C(=O)c1ccc2ccccc2c1 (some centres not stated)	-16.1	·	·	-183.9	-7.8	-16.5	·	·
NS(=O)(=O)c1ccc(CCNC(=O)CCNS(=O)(=O)c2ccccc2C(F)(F)F)cc1	5.8	-9.1	·	5.4	0.2	3.6	·	·
COc1cccc(OCC(O)CN2CCN(c3ncccn3)CC2)c1 (configuration not stated)	·	-17.6	4.2	-9.2	3.3	-4.8	7.0	i
CC(C)CCN(C(=O)c1ccc(Br)cc1)c1c(N)n(Cc2ccccc2)c(=O)[nH]c1=O	-0.7	·	·	4.4	-1.5	0.2	·	·
COc1cc(C(=O)N(C)Cc2cccc(OC)c2OC)ccc1OCC(=O)Nc1cccc(C(F)(F)F)c1	-0.6	19.0	·	30.3	4.4	-27.7	·	i
CC1CCCC(C)N1C(=O)Cn1c(=O)sc2ccccc21 (configuration not stated)	-4.7	-8.8	2.9	-6.4	-2.9	1.4	2.6	i
CCc1noc(C)c1C(=O)N1CCCC(N2CCN(c3ccccc3F)CC2)C1 (configuration not stated)	-9.9	12.1	-7.9	7.2	0.8	3.0	-8.1	i
CCn1c(SC)nnc1-c1sc2cc(Cl)ccc2c1Cl	-24.6	·	12.6	·	-8.2	-7.4	2.9	i
Cc1ccc(S(=O)(=O)O/N=C2\CCCc3ccccc32)cc1	-7.2	-9.4	1.2	·	8.9	3.2	18.0	i
CCOc1ccccc1-n1ccn(CC(=O)Nc2ccc(Br)cc2F)c(=O)c1=O	-2.7	·	·	1.2	3.1	-0.1	·	i
CC(=O)c1c(C)[nH]c(C(=O)OCC(=O)c2c(N)n(CC(C)C)c(=O)n(C)c2=O)c1C	-17.3	·	·	6.2	-12.2	-17.6	·	·
CC(C)(C)OC(=O)N1CCC(c2c(C(=O)N3CCN(C(=O)c4ccco4)CC3)cnn2-c2cccc(Cl)c2)CC1	12.9	-4.1	-8.9	7.1	-2.1	-3.8	8.3	i
CCOc1cccc(C(=O)NNC(=O)C2C3C=CC(C3)C2C(=O)O)c1 (configuration not stated)	-18.8	·	-1.6	·	0.1	2.1	-1.7	i
Cc1cc(C)cc(N2C(N)=NC(N)=NC2c2cccc(Cl)c2)c1 (configuration not stated)	-9.6	11.1	1.0	-38.3	-19.7	-8.9	-2.2	i
Cc1cc(C)c2sc(NNC(=O)c3ccc(S(=O)(=O)N4CCc5ccccc5C4)cc3)nc2c1	-36.8	102.6*	7.8	-182.1	9.7	-30.2	3.5	i
C=C(C)CN1C(=O)C(O)(CC(=O)c2ccc3c(c2)OCCO3)c2ccccc21 (configuration not stated)	-3.9	-3.0	-10.3	·	1.9	-1.5	0.4	i
Cc1ccc(Cn2nc(C)c(NC(=O)c3cc(C)no3)c2C)cc1	-0.5	9.7	-4.5	-13.3	-0.5	-1.5	0.2	i
